# Compound activity deposited in PubChem BioAssay by ICCB-Longwood Screening Facility, Harvard Medical School.
# MgrA-DNA mod = alters Staphylococcus aureus MgrA binding to DNA; inhibition, %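 (about 10 µg/mL by stock and volumes)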; fluorescence polarization; AID 602314; 84,000 tested, 0.13% active;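 active = above 50% in either of two replicates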;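 also: 0% = protein plus DNA without compound and 100% = DNA alone without protein; higher means less MgrA bound to DNA so lower polarization; one replicate is shown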
# S aureus helic = S. aureus DNA helicase inhibition | purified S. aureus helicase, fluorescence unwinding assay; about half of the hits fall short of the stated cut | inhibition, %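 (tested at about 80 µM)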 | 120,000 tested, 0.05% active | AID 485395;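 active = both duplicates at 50% or more, or one of them with a favoured structure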;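 also: 0% = mean of negative control wells and 100% = mean of positive control wells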
# Numbers without * were called inactive; . = not tested or not shown; & = joins results of further samples.
# Each structure is followed by: MgrA-DNA mod | S aureus helic
Cc1nn(-c2ccccc2)c(C)c1P(C)(=O)c1ccccc1 (configuration not stated)
    . | -5.0
Cc1ccccc1NC(=O)C1C2CCCCC21 (configuration not stated)
    -0.2 | 14.0
Cc1csc2c(N3CC(C)OC(C)C3)ncnc12 (configuration not stated)
    -1.2 | .
Cc1ccc(C)c(NC(=S)N(CCc2ccccc2)CCc2ccccn2)c1
    -0.1 | .
CCNC(=O)c1cc(-c2ccco2)nc2ccccc12
    -1.5 | -13.0
CCOC(=O)c1cnc(SC2CCc3ccccc3C2=O)nc1N (configuration not stated)
    2.0 | 21.0
CCN(c1ccc(NC(=O)CN(C)c2ccccc2)cc1)C(C)C
    . | -8.0
N#CN(Cc1ccccc1Cl)Cc1ccccc1Cl
    -1.4 | .
CCOc1cc(C2C3=C(CC(C)(C)CC3=O)OC3=C2C(=O)CC(C)(C)C3)ccc1OCc1ccc(Cl)cc1Cl
    1.2 | .
CC(C)(C)c1ccc(CN(Cc2ccco2)Cc2nnnn2C2CCCCC2)cc1
    -1.1 | -2.0
COCc1nc2ccc(C)cc2[nH]1
    0.0 | -14.0
C=CCn1c(CCC(=O)OC)nc2ccccc21
    . | 11.0
S=c1[nH]c(-c2ccccc2)cn1/N=C/c1ccncc1
    . | -6.0
O=C(Cc1ccc(Br)cc1)NN1CCOCC1
    4.8 | 2.0
O=C(NC1C=CS(=O)(=O)C1)c1sc2ccccc2c1Cl (configuration not stated)
    -1.0 | 10.0
NNC(=O)CSCCS(=O)(=O)c1ccccc1
    0.0 | .
CCN(CC)S(=O)(=O)c1cc(C(=O)Oc2ccc3c(c2)OCO3)ccc1C
    . | 13.0
COc1ccc(C(=O)Nc2nccs2)c(OC)c1
    -1.7 | 1.0
Cc1cc(Oc2ncccc2[N+](=O)[O-])cc(C)c1Cl
    -9.3 | .
CN(C)/C=C1/C=C(c2ccccc2)N(C)C1=S
    2.5 | -6.0
CCSCCOC(=O)C1=C(C)NC(=O)NC1c1cc2c(cc1Br)OCO2 (configuration not stated)
    -0.4 | .
CSc1c(C#N)c(-c2ccco2)nn1C
    -0.2 | .
O=C(COC(=O)c1cc2c(s1)CCC2)Nc1nccs1
    . | 3.0
Cc1cc(C(=O)CSc2nc3ccccc3n2C)c(C)n1C
    . | -7.0
CCC1(C)Cc2ccccc2-c2[nH]c(=S)[nH]c(=O)c21 (configuration not stated)
    3.5 | 20.0
CCN(CC)c1nc(Nc2ccc(OC)c(Cl)c2)c2cnn(C)c2n1
    . | -18.0
COc1ccc(S(=O)(=O)N2CCC(NC(=O)NCCCO)CC2)cc1
    . | 8.0
Cc1ccc(-c2ccc(C(=O)O)cc2)cc1
    -0.8 | 18.0
CCCCCCNC(=O)n1cc(F)c(=O)[nH]c1=O
    3.1 | .
CC(=O)N(c1ccc2oc3c(c2c1)CCCC3)S(=O)(=O)c1cccs1
    . | 32.0
O=C(c1ccccc1)c1ccc(Cl)s1
    . | 2.0
CCc1ccccc1NC(=O)CN(C)C(=O)Cn1nnc2ccccc2c1=O
    . | 11.0
Cn1c(C2CC(=O)N(Cc3ccccc3)C2)nc2ccccc21 (configuration not stated)
    . | -8.0
C=CCN1C(=O)S/C(=C\c2cc(OC)ccc2OC)C1=O
    4.2 | 18.0
CCOc1cc(C2C(C(=O)OCCOC)=C(C)NC3=C2C(=O)CC(c2ccc(Cl)cc2)C3)ccc1O (configuration not stated)
    -2.2 | .
COC(=O)c1cc(C(=O)OC)cc(-n2c(C)cc(C(=O)COc3ccc(-c4nnco4)cc3)c2C)c1
    . | 6.0
Cc1c(CCOC(=O)C2CC2)sc[n+]1CC(=O)c1ccccc1
    -0.8 | 24.0
O=S1(=O)Cc2snnc2-c2cc(Cl)ccc21
    . | 20.0
CC(C)(C)c1ccc(-c2nnn(-c3ccccc3)n2)cc1
    . | -1.0
COC(=O)C1=C(C)NC(C)=C(C(=O)OCCSc2ccccc2)C1C (configuration not stated)
    -0.1 | .
CC(=O)Nc1ccc(C(=O)CSc2nnc3n2CCCCC3)c(F)c1
    . | 12.0
C=C(C)C(=O)Nc1cccnc1Oc1ccccc1F
    . | 15.0
CC(C)(C)NCC(O)COc1ccc(-c2csnn2)cc1 (configuration not stated)
    -1.8 | .
Cc1cc(=O)c2cccc(C(=O)O)c2[nH]1
    -6.2 | -4.0
O=S(=O)(NC1CCCCC1N1CCN(C2CCCCC2)CC1)c1ccccc1 (configuration not stated)
    . | 10.0
Cn1nccc1C(=O)NCCN
    -2.4 | -6.0
CC1Cc2nc(SCC(N)=O)n(Cc3ccccc3)c(=O)c2S1 (configuration not stated)
    . | 4.0
CCC(C)Cn1c(C)c2c(=O)n(-c3nc4ccccc4s3)[nH]c2cc1=O (configuration not stated)
    6.3 | 3.0
O=S1(=O)CCN(Cc2ccccc2C(F)(F)F)CC1
    1.4 | .
COc1ccc(O)c(/C=N/NC(=O)CSc2nnc(C)n2-c2ccccc2)c1
    3.4 | 3.0
CC(=O)Nc1ccc(-c2nc3ncccc3o2)cc1C
    1.7 | 9.0
COc1cccc(-c2nn(-c3ccccc3)c3c2cnc2ccccc23)c1
    0.2 | 8.0
O=C(OCC(=O)c1ccc[nH]1)c1ccc(-n2cnnn2)cc1
    . | -3.0
CC1CCCC(n2cnc3cc(C(=O)O)ccc32)C1C (configuration not stated)
    0.6 | 3.0
CC(C)CC(C(=O)Oc1ccc2c3c(c(=O)oc2c1)CCC3)N1C(=O)c2ccccc2C1=O (configuration not stated)
    1.3 | 14.0
Cc1occc1-c1nnc(SCC(=O)N2CCCC(C)C2)n1CC1CCCO1 (configuration not stated)
    -0.2 | 14.0
CCOC(=O)/C(C#N)=C/Nc1nc2c(OC)cccc2s1
    . | 11.0
CN=C(Nc1ccc(C(=O)OC)cc1)c1ccccc1
    . | 9.0
c1c2c(cc3sc(N4CCCC4)nc13)OCO2
    . | 9.0
Cc1cc(C(=O)CSc2ncccn2)c(C)n1Cc1ccccc1
    . | -11.0

# Next records
# Each structure is followed by: MgrA-DNA mod | S aureus helic
COc1ccc(CN2CCC(C(=O)NCc3ccc(C)cc3)CC2)cc1
    -3.4 | 12.0
Cc1ccccc1N1CCN(C(=O)c2c(C)oc3cc4c(C(=O)N5CCN(c6ccccc6C)CC5)c(C)oc4cc23)CC1
    . | 5.0
O=C(c1ccccc1)c1ccc(Oc2ncccn2)cc1
    . | 8.0
COc1ccc(NC(=O)N2CCCC(C(N)=O)C2)cc1 (configuration not stated)
    1.4 | 7.0
COc1ccc(C(N)=CC(=O)OC(C)(C)C)cc1
    -0.6 | -2.0
O=C(COc1ccc2oc(-c3ccco3)cc(=O)c2c1)NCc1ccccc1
    8.3 | -25.0
CCc1ccc(NC(=O)N2CCCCC2C)cc1 (configuration not stated)
    0.8 | 17.0
CSc1nc2c(=S)[nH]c(=S)[nH]c2s1
    1.1 | .
CC(=O)Oc1cc(-c2cccc(C(F)(F)F)c2)c2oc(=O)sc2c1
    1.3 | 7.0
CCS(=O)(=O)Nc1ccc(OC)c(Cl)c1
    -2.2 | -5.0
COc1ccc(CCNc2ncnc3c2cnn3-c2ccc(F)cc2)cc1OC
    . | 4.0
CCOC(=O)c1cc(-n2cccc2)ccc1N1CCCCC1
    . | -1.0
CCc1c(N)n[nH]c1C
    -10.0 | 5.0
CC1SC(=NC(=O)c2ccco2)NC1=O (configuration not stated)
    2.1 | 12.0
CCN(c1ccccc1)S(=O)(=O)c1ccc(N2CCN(CC(=O)N3CCCCCC3)CC2)nc1
    . | 1.0
Cc1cc(COC(=O)C23CCC(=O)N2c2ccccc2C(=O)N3C2CC2)no1 (configuration not stated)
    . | -7.0
CCC(=O)Nc1ccc(-c2nnc3n2CCCCC3)cc1
    . | 12.0
O=C(Nc1ccccc1)C1CCN(c2ccc(C(F)(F)F)cn2)CC1
    -2.0 | .
CC1CCCC(C)N1C(=O)Cn1nc(C(=O)O)c2ccccc2c1=O (configuration not stated)
    . | -15.0
CC(C)CCNC(=O)Cn1nc(-c2ccccc2)ccc1=O
    1.1 | 4.0
COc1ccc(OC)c(S(=O)(=O)CC(O)COc2ccc(Br)cc2)c1 (configuration not stated)
    -2.5 | .
CN(C)S(=O)(=O)Nc1ccccc1
    -1.0 | .
CC(Sc1nnc(-c2ccc3c(c2)OCO3)o1)C(=O)N1CCc2ccccc2C1 (configuration not stated)
    . | 2.0
CCOC(=O)c1ccc(CS(=O)(=O)c2ccc(Cl)cc2)o1
    . | 1.0
Cc1n[nH]c(C)c1C(C)N (configuration not stated)
    -1.2 | 0.0
O=C(Cc1c[nH]c2ccccc12)OCC(=O)c1cc2ccccc2o1
    . | -4.0
CC(C(=O)O)c1ccc(N2Cc3ccccc3C2=O)cc1 (configuration not stated)
    -9.8&0.2 | .
CC1=CC(c2ccccc2)n2nc(N)nc2N1 (configuration not stated)
    2.8 | -17.0
C=C1C(C(=O)Nc2cccc(OC)c2)C1C(=O)Nc1cccc(OC)c1 (configuration not stated)
    0.8 | -25.0
COc1cc(/C=C2\Sc3ccccc3C2=O)ccc1OCC#N
    3.9 | .
c1ccc(CN2CCN(Cc3cnc(-c4ccccc4)[nH]3)CC2)cc1
    -2.9 | .
Cc1ccc(-c2ccccc2C(=O)O)cc1
    -1.0 | -8.0
Cc1ccc(-c2csc3nnc(SCC(N)=O)n23)cc1
    -1.2 | -16.0
NNc1ccc2nc3ccccc3c(=O)n2n1
    . | 15.0
O=C(CCn1c(SCC(=O)c2ccc(F)cc2)nc2cc3c(cc2c1=O)OCO3)NCc1ccc2c(c1)OCO2
    . | -1.0
CC(c1ccco1)N(C(=O)c1ccc(-c2ccccc2)cc1)c1ccccn1 (configuration not stated)
    . | 10.0
O=C1C(=O)N(c2cccnc2)C(c2ccc(O)cc2)/C1=C(\O)c1ccc(Br)cc1 (configuration not stated)
    -5.8 | 4.0
O=C(COC(=O)Cc1cccc2ccccc12)Nc1ccccc1F
    0.1 | -4.0
Nn1c(SCC(=O)Nc2ccc(S(=O)(=O)N3CCCC3)cc2)nnc1-c1ccccc1
    . | 9.0
O=C1S/C(=C\c2cc3c(cc2Br)OCO3)C(=O)N1c1ccccc1
    -0.8 | .
CCSc1cc(CC)sc1C(=O)O
    -6.4 | -1.0
CC1CN(C(=O)c2cccc(C(=O)N3CC(C)OC(C)C3)c2)CC(C)O1 (configuration not stated)
    -0.3 | -10.0
N#C/C(=C(/O)c1ccc(Br)s1)c1nc2ccccc2[nH]1
    . | 4.0
CSC(=S)N(C=O)c1ccc(C)cc1
    . | 22.0
CC(C)c1ccc(NC(=O)Cn2cccc2)cc1
    0.8 | 13.0
O=C(Nc1ccc(-c2nc3ccccc3[nH]2)cc1)c1cc(-c2ccco2)nc2ccccc12
    . | -25.0
COc1ccc(/C=C2\N=C(c3c(-c4ccccc4)noc3C)OC2=O)c(OC)c1OC
    -1.8 | .
CSC1=C(C#N)C(=O)NC(c2ccc(Cl)cc2Cl)S1 (configuration not stated)
    -1.3 | .
COc1ccc(-n2ncc(C(=O)NCCc3ccccn3)c2C)cc1
    -2.3 | .
Cc1cc2c(c(=O)o1)C(c1ccc(F)cc1)C(C#N)=C(N)O2 (configuration not stated)
    6.0 | 1.0
Clc1ncnc2[nH]ncc12
    . | -1.0
CCNC(=O)/C=C/c1ccc(Cl)c(Cl)c1
    . | 6.0
Cn1c(=O)n(C)c2cc(/C=N/NC(N)=S)ccc21
    0.4 | 6.0
N#CSc1sc(N)nc1-c1ccccc1
    . | 19.0
CC(C)NC(=S)N1CCN(S(=O)(=O)c2cccc(C(F)(F)F)c2)CC1
    . | 6.0
Nc1cccc(C(=O)Nc2ccc3nc(-c4ccccn4)[nH]c3c2)c1
    . | 8.0
CC(=O)n1cccc1C#N
    . | 5.0
Cc1cc(N)n(-c2ccccc2C(F)(F)F)n1
    0.1 | -22.0
CC1(C)Cc2ccccc2C(CSc2nc3c(c(C(F)(F)F)n2)CCCC3)=N1
    1.5 | -5.0
COC(=O)c1ccc(NS(=O)(=O)c2cc(Cl)ccc2OC)cc1
    6.0 | 9.0

# Carrying on.
# Each structure is followed by: MgrA-DNA mod | S aureus helic
Cc1cn(CCC(=O)O)c2ccccc12
    3.8 | .
CCOC(=O)CC1COc2ccccc2N1C(=O)c1ccc(F)cc1 (configuration not stated)
    -4.2 | .
CCN(CC)c1nc(Nc2cc(C)ccc2C)nc(Nc2ccccc2OC)n1
    -5.0 | 12.0
COC(=O)c1ccccc1NC(=O)C(C)N(c1ccccc1)S(C)(=O)=O (configuration not stated)
    2.6 | 21.0
C=CCSc1nc(C)c2cc(C)cc(C)c2n1
    0.5 | 7.0
Oc1ccc2ccccc2c1CN1CCCC(C(F)(F)F)C1 (configuration not stated)
    . | 5.0
CC(C)(O)C#Cc1ccc(C2NCCS2)cc1 (configuration not stated)
    . | 12.0
COc1cc(C)nc2nc(S(C)(=O)=O)nn12
    0.3 | .
CS(=O)(=O)N1CCN(S(C)(=O)=O)CC1
    -1.9 | 4.0
COC(=O)c1sc(NC(=O)C2c3ccccc3Oc3ccccc32)nc1C
    . | 4.0
COc1ccc(OC(=O)c2cn(-c3ccccc3)nc2SC)cc1
    3.8 | .
O=C(CCc1nc2cccnc2n1-c1ccccc1)NCCc1ccccc1
    0.8 | -6.0
O=C(O)c1cc(NNC(=S)NC2CCCCC2)ccc1Cl
    . | 5.0
C=CCNc1nc2c([nH]c3ccccc32)s1
    5.7 | -11.0
CCOC1CCCCC1NS(=O)(=O)c1ccc(Cl)cc1 (configuration not stated)
    3.2 | -22.0

# Part of the list above in order of length of the SMILES, ascending.
# Each structure is followed by: MgrA-DNA mod | S aureus helic
CSc1c(C#N)c(-c2ccco2)nn1C
    -0.2 | .
Cc1ccc(-c2ccccc2C(=O)O)cc1
    -1.0 | -8.0
C=C(C)C(=O)Nc1cccnc1Oc1ccccc1F
    . | 15.0
O=C(CCn1c(SCC(=O)c2ccc(F)cc2)nc2cc3c(cc2c1=O)OCO3)NCc1ccc2c(c1)OCO2
    . | -1.0

# An excerpt; rates above refer to the full screens.
